AF4-AF9 inh: MLL-AF4/AF9 protein interaction inhibition | inhibition, % at 10 µM | AlphaScreen, biotin-AF4 peptide binding to FLAG-AF9 | 350,000 tested, 0.47% active | AID 651704 | P42568;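 active means every replicate reaching a set inhibition limit, whatever the replicate mean, cut at about 25% in these data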;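 further: 0% = plate neutral control median and 100% = total signal loss; the record names both 10 and 1 µM as test concentration; the first replicate is given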
Target sequence (P42568 whole entry, looked up): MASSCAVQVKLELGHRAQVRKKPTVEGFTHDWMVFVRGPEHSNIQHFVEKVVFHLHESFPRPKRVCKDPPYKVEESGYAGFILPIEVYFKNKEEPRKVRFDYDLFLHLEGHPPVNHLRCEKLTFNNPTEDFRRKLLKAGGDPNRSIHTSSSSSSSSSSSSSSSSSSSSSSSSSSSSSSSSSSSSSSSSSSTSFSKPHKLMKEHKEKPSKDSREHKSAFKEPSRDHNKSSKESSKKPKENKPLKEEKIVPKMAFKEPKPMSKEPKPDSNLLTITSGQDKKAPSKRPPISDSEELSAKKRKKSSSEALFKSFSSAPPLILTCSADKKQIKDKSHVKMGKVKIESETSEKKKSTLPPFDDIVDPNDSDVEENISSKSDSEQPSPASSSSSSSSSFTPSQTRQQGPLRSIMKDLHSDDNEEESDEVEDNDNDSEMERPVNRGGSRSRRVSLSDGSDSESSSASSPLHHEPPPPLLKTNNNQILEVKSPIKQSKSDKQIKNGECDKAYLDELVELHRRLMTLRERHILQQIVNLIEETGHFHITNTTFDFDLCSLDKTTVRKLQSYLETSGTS
FGF22 binding: shifts melting point of recombinant human FGF22. AID 651658. 340,000 tested, 1.5% active. recombinant FGF22 thermal shift, SYPRO orange fluorescence; percent of sucrose octasulfate shift, DMSO zero. calls only at 9.99 µM;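 active means melting point raised past a set limit in the mean and every replicate; three in four hits are not shown here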
Target sequence (Q9HCT0 whole entry, looked up): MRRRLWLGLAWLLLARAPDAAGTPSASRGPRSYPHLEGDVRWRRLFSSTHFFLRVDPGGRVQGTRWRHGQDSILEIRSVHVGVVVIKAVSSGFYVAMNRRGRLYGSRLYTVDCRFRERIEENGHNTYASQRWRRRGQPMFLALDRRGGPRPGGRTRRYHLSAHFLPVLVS
rRNA inh HTS: inhibits bacterial ribosomal RNA function over humanized ribosomes; E. coli WT GFP vs humanized-ribosome RFP mutants, fluorescence, 24 h; active compounds read low; DMSO median 0, no signal -100; GFP signal change (wild-type ribosome), % (no concentration beside the values); 350,000 tested, 1.6% active;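 active means significant combined selectivity score with lowered wild-type GFP, culture density cut under 30%, mutant RFP and density less affected; inactive means any of these conditions unmet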; further: one replicate is shown; some compounds called inactive have numbers as strong as hits
rRNA inh HTS OD600: recorded beside rRNA inh HTS, whose call it bears; OD600 change, %; measured here: OD600 growth;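 optical density of the mix in the first replicate; 0 = DMSO median and -100 = no signal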
rRNA inh HTS RFP: recorded beside rRNA inh HTS, whose call it bears; RFP signal change, %; measured here: RFP humanized mutant strains;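 first replicate; 0 = DMSO median and -100 = no signal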
* marks the source's active call; other numbers are inactive results; i = inactive; . = not tested or not shown; & = joins results of further samples. Not all compounds are listed (hit frequency here may not be typical).

Every second line gives: AF4-AF9 inh	rRNA inh HTS OD600	rRNA inh HTS RFP	FGF22 binding	rRNA inh HTS
> CCS(=O)(=O)NCC[C@@H]1CC[C@@H](NS(=O)(=O)c2cccc(F)c2)[C@H](CO)O1
  -3.2	0.7	-1.1	i	-1.9
> CCOC(=O)[C@]12CCC=C1N(CCC1=CCCCC1)C(=O)[C@H](CC(=O)NCCC(C)C)C2
  -5.5	10.0	-0.3	i	16.0
> CCCNC(=O)c1cc2c(c(-c3cccc(-c4ccc(F)cc4)c3)n1)[C@@H](CCO)N([S@](=O)C(C)(C)C)C2
  8.3	-6.6	26.4	i	-7.8
> C/C=C/c1ccc([C@H]2[C@@H](CO)N(C(C)=O)C23CN(C(=O)NC2CCCCC2)C3)cc1
  -0.1	0.2	-0.1	i	0.8
> COc1ccc(NC(=O)N(C)C[C@@H]2Oc3ccc(NC(=O)NC4CCCCC4)cc3C(=O)N([C@H](C)CO)C[C@@H]2C)cc1
  -1.1	1.1	-2.6	i	-1.3
> Cc1noc(C)c1S(=O)(=O)Nc1ccc2c(c1)C(=O)N([C@H](C)CO)C[C@@H](C)[C@H](CN(C)Cc1ccc3c(c1)OCO3)OCCCC[C@@H](C)O2
  6.1	-4.3	2.8	i	-1.9
> CC1C(=O)N(Cc2cn(CCC3OCCCO3)nn2)CCS(=O)(=O)N1Cc1ccc(-c2ccccc2)cc1 (centres undefined)
  1.1	-8.8	0.0	i	5.4
> O=C(C[C@@H]1C=C[C@@H](NC(=O)c2cnccn2)[C@@H](CO)O1)NCc1ccccc1F
  -1.8	15.1	-1.7	i	-1.1
> C[C@H]1CN([C@@H](C)CO)C(=O)Cc2cc(NS(=O)(=O)c3ccc(Cl)cc3)ccc2O[C@@H]1CN(C)S(=O)(=O)c1ccc(Cl)cc1
  3.8	-4.0	1.5	i	-4.7
> O=C(C[C@H]1CC[C@@H]2[C@H](COC[C@H](O)CN2Cc2cccc(C(F)(F)F)c2)O1)NCc1ccncc1
  -0.4	4.0	-0.2	i	-2.4
> CC(C)c1cn(CC[C@H]2CC[C@H](NS(=O)(=O)c3ccccc3)[C@@H](CO)O2)nn1
  -1.9	0.3	2.2	i	1.7
> CC(=O)N1[C@@H]2c3ccc(C4=CCCCC4)c(=O)n3C[C@@H]2[C@@H](CO)[C@@H]1C(=O)N1CCCCC1
  -1.6	8.7	-2.7	i	1.8
> O=C(C[C@@H]1CC[C@H]2[C@@H](COC[C@@H](O)CN2Cc2cc(F)ccc2F)O1)NCc1ccccc1
  -1.5	16.1	0.5	i	-2.0
> CC(N)C(=O)NC(C(=O)NC(C)C(=O)Nc1cccc2ccccc12)C(C)C (centres undefined)
  7.0	-19.6	-5.7	i	-14.6
> Cc1cc(CNC[C@H]2O[C@@H](n3cnc(C(N)=O)n3)[C@H](O)[C@@H]2O)c(C)n1-c1cccnc1
  -1.6	0.5	-6.3	i	-1.1

Shown with the structure last: three of the compounds above
AF4-AF9 inh,rRNA inh HTS OD600,rRNA inh HTS RFP,FGF22 binding,rRNA inh HTS,SMILES
-1.9,0.3,2.2,i,1.7,CC(C)c1cn(CC[C@H]2CC[C@H](NS(=O)(=O)c3ccccc3)[C@@H](CO)O2)nn1
-1.6,8.7,-2.7,i,1.8,CC(=O)N1[C@@H]2c3ccc(C4=CCCCC4)c(=O)n3C[C@@H]2[C@@H](CO)[C@@H]1C(=O)N1CCCCC1
-1.5,16.1,0.5,i,-2.0,O=C(C[C@@H]1CC[C@H]2[C@@H](COC[C@@H](O)CN2Cc2cc(F)ccc2F)O1)NCc1ccccc1

Next results follow.
Every second line gives: AF4-AF9 inh	rRNA inh HTS OD600	rRNA inh HTS RFP	FGF22 binding	rRNA inh HTS
> C[C@@H]1CN([C@@H](C)CO)C(=O)c2cc(C#Cc3ccccn3)cnc2O[C@@H]1CN(C)Cc1cccnc1
  -5.1	12.2	1.9	i	8.6
> O=C(C[C@@H]1CC[C@@H](NC(=O)Nc2ccc(F)cc2)[C@H](CO)O1)NCc1ccccn1
  -1.2	-1.7	-1.2	i	-8.6
> COc1ccc(CN(C)C[C@@H]2Oc3ccc(NS(=O)(=O)c4ccc(OC)cc4)cc3C(=O)N([C@@H](C)CO)C[C@H]2C)cc1
  0.2	0.1	0.1	i	-2.0
> CCOC(=O)C1(C)CCN1C(=O)c1ccco1 (centres undefined)
  -1.0	23.4	2.7	i	21.6
> CC1=C(C(=O)N(C(C)C)C(C)C)CC(CC(=O)NCCCN(C)C)C(=O)N1CCCN1CCCC1=O (centres undefined)
  -0.7	9.9	-1.1	i	9.4
> C[C@@H]1CCCCO[C@@H](CN(C)C(=O)c2ccccc2)[C@H](C)CN([C@H](C)CO)C(=O)c2cc(NC(=O)NC3CCCCC3)ccc2O1
  4.2	-1.8	-0.2	i	-2.3
> O=C(Nc1ccc(F)cc1)N1[C@H](CO)[C@H]2c3ccccc3NC[C@H]21
  0.2	7.8	-0.3	i	0.9
> Cc1cccc(S(=O)(=O)N[C@@H]2CC[C@@H](CCn3cc(-c4ccccn4)nn3)O[C@@H]2CO)c1
  1.0	-2.6	-0.5	i	-2.3
> C[C@H]1CN([C@@H](C)CO)C(=O)c2cccc(NC(=O)NC3CCCCC3)c2O[C@H]1CN(C)Cc1ccc2c(c1)OCO2
  -4.5	-4.1	0.0	i	1.2
> C[C@@H]1CN([C@@H](C)CO)S(=O)(=O)c2ccc(-c3ccc(F)cc3)cc2O[C@@H]1CN(C)CC1CC1
  5.1	0.6	0.9	i	1.4
> COc1cccc(NC(=O)CN2CCC(NC(=O)c3ccccc3C)CC2)c1
  -5.8	6.1	-0.3	i	8.7
> C[C@H](CO)N1C[C@H](C)[C@H](CN(C)C(=O)C2CC2)OCc2cnnn2CCCC1=O
  0.9&0.4	16.4&4.4	0.4&-2.9	i	8.5&-0.6
> COc1ccc(CNC(=O)C[C@H]2C[C@@H]3c4cc(NC(=O)C5CCC5)ccc4O[C@@H]3[C@H](CO)O2)cc1
  5.5	1.4	-2.0	i	1.6
> CN(C)C(=O)c1cccc(-c2ccc([C@@H]3[C@@H](C#N)N(C(=O)C4CCC4)[C@@H]3CO)cc2)c1
  -2.1	0.0	0.6	i	1.5
> COc1ccc(CN(C)C[C@@H]2OCCCC[C@H](C)Oc3ccc(NC(=O)Nc4cccc5ccccc45)cc3C(=O)N([C@H](C)CO)C[C@H]2C)cc1
  11.6	-28.2	17.1	i	-26.4
> C[C@@H]1CN([C@H](C)CO)C(=O)c2cc(NS(=O)(=O)c3ccc(Cl)cc3)ccc2O[C@@H](C)CCCCO[C@H]1CN(C)Cc1ccc(Cl)c(Cl)c1
  2.9	-7.6	12.2	i	0.6
> O=S(=O)(N[C@H]1CC[C@@H](CCn2cc(-c3ccccn3)nn2)O[C@@H]1CO)c1cccc(Cl)c1
  2.9	-0.4	-2.9	i	-3.3
> C[C@H](CO)N1C[C@H](C)[C@@H](CN(C)CC2CCCCC2)Oc2c(NC(=O)Nc3ccccc3)cccc2C1=O
  7.1	-11.7	4.3	i	-3.7
> CCOc1ccc(CCN2C(=O)C(=O)N([C@@H](CC(C)C)CN3CCC[C@H]3CN3C(=O)C(=O)NC[C@@H]3Cc3ccc(O)cc3)C[C@@H]2CC(C)C)cc1
  8.0	-33.5	3.7	i	-18.0
> O=C(NCC[C@@H]1CC[C@@H](NS(=O)(=O)Cc2ccccc2)[C@@H](CO)O1)C1CCCC1
  -0.7	5.7	0.1	i	-0.9
> Nc1[nH]c(C(=O)c2ccccc2)c(-c2ccc(Cl)cc2)c1C(=O)NCCc1c[nH]c2ccccc12
  0.6	-4.5*	5.5*	i	-18.6*
> C[C@@H]1CN([C@H](C)CO)C(=O)c2cccc(NC(=O)C3CCCCC3)c2O[C@H]1CN(C)Cc1ccc(Oc2ccccc2)cc1
  0.7	12.4	-2.3	i	6.1
> C[C@H]1CCCCO[C@@H](CN(C)C(=O)c2ccncc2)[C@@H](C)CN([C@@H](C)CO)C(=O)c2cc(NC(=O)c3ccncc3)ccc2O1
  -1.0	7.1	1.2	i	1.0
> C[C@@H]1CN([C@H](C)CO)C(=O)c2ccccc2-c2ccccc2CO[C@H]1CN(C)C(=O)c1ccccc1
  1.6	4.6	-3.2	i	-0.8
> CN1OC[C@@H]2CN[C@H](c3cccc(-c4cc(Cl)cc(Cl)c4)c3)C[C@@H]21
  3.1	-10.2	6.5	i	-14.1
> CN1C(=O)c2cc(NC(=O)C3CCCCC3)ccc2OC[C@H]2O[C@H](CC(=O)NCCc3ccncc3)CC[C@@H]21
  0.9	2.2	-0.7	i	1.8
> C[C@H](CO)N1C[C@H](C)[C@@H](CN(C)C(=O)Nc2ccc3c(c2)OCO3)Oc2ccc(NS(=O)(=O)c3ccc(Cl)cc3)cc2C1=O
  2.2	-0.2	-0.1	i	2.9
> Cc1noc(C)c1NC(=O)N(C)C[C@@H]1Oc2c(NS(C)(=O)=O)cccc2C(=O)N([C@@H](C)CO)C[C@@H]1C
  -12.7	5.7	-1.4	i	0.5
> CO[C@@H]1CN(C)C(=O)c2ccc(NC(=O)NC(C)C)cc2OC[C@@H](C)N(C(=O)NC(C)C)C[C@@H]1C
  -0.1	4.1	-0.7	i	1.6
> O=C(CC[C@H]1O[C@@H](n2cnc3c(NC(=O)c4ccccc4)ncnc32)[C@H](O)[C@@H]1O)N[C@@H](CO)Cc1c[nH]c2ccccc12
  -5.5	22.7	1.2	i	12.9
> COc1ccccc1-c1ccc([C@@H]2[C@@H](CO)N3CCCCN(S(=O)(=O)c4cn(C)cn4)C[C@@H]23)cc1
  -0.6	-9.2	-1.8	i	-2.4
> C[C@@H]1CN([C@H](C)CO)C(=O)Cc2cc(NS(C)(=O)=O)ccc2O[C@@H]1CN(C)Cc1ccc(Cl)c(Cl)c1
  1.4	-21.2	4.1	i	-7.5
> O=C(C[C@@H]1C=C[C@@H](NC(=O)Nc2ccc(F)cc2)[C@@H](CO)O1)NCc1ccccn1
  0.3	12.3	4.5	i	-2.6
> CCC(=O)N1[C@H](CO)[C@@H](c2ccc(-c3ccc(F)cc3)cc2)C12CN(C(C)=O)C2
  -1.2	1.5	-1.8	i	-1.1
> COc1ccccc1CNC(=O)C[C@@H]1C[C@H]2c3cc(NC(=O)C4CCC4)ccc3O[C@H]2[C@@H](CO)O1
  0.8	14.6	2.0	i	-0.8
> Cc1noc(C)c1S(=O)(=O)N(C)C[C@H]1Oc2c(NS(=O)(=O)c3cn(C)cn3)cccc2C(=O)N([C@@H](C)CO)C[C@@H]1C
  -1.4	-0.6	-2.8	i	1.6
> O=C(C[C@H]1CC[C@@H]2[C@H](COC[C@H](O)CN2C(=O)c2cccnc2)O1)NC1Cc2ccccc2C1
  -5.3	6.8	0.6	i	1.8
> CC(C)C#Cc1cnc2c(c1)C(=O)N([C@@H](C)CO)C[C@H](C)[C@H](CN(C)C(=O)c1ccccc1F)O2
  -4.1	5.0	-0.4	i	3.6
> COc1ccc2c3c(n(C)c2c1)[C@@H](CO)N(C(=O)CN(C)C)CC31CCN(Cc2cccnc2)CC1
  0.7	13.7	-4.0	i	2.5
> C/C=C/c1ccc([C@@H]2[C@H](CO)N(C(=O)COC)[C@H]2CNC(=O)CC)cc1
  -1.4	10.0	-1.8	i	-0.7
> CC(C)(C)c1ccc(C#C[C@@H]2C=C[C@@H](O)[C@@H](COC(=O)NCc3ccccc3)O2)cc1
  -1.0	-1.6	2.1	.	2.9
> CC(C)CC#Cc1cnc2c(c1)C(=O)N([C@H](C)CO)C[C@@H](C)[C@H](CN(C)Cc1ccc(F)cc1)O2
  8.1	-0.8	7.7	i	2.2
> Cc1noc(C)c1S(=O)(=O)N(C)C[C@H]1Oc2ccc(NC(=O)Cn3cnnn3)cc2CC(=O)N([C@H](C)CO)C[C@@H]1C
  -0.3	8.5	2.6	i	3.8
> COc1ccc(NC(=O)Nc2ccc3c(c2)C(=O)N([C@H](C)CO)C[C@@H](C)[C@@H](CN(C)Cc2ccc4c(c2)OCO4)O3)cc1
  7.6	-2.3	2.2	i	0.9
> C[C@@H]1CN([C@@H](C)CO)C(=O)c2cc(-c3cccc(F)c3)cnc2O[C@H]1CN(C)S(=O)(=O)c1cccc(F)c1
  2.2	-14.4	7.8	i	-11.5
> C[C@H]1CN([C@@H](C)CO)C(=O)c2cc(NS(=O)(=O)c3ccccc3)ccc2O[C@H]1CN(C)Cc1ccccc1
  -1.9	-10.0	0.2	i	-2.0

Bioassay records deposited in PubChem BioAssay by Broad Institute.
